Ran FRET – inhibitors of Ran–importin-beta complex formation, primary screen, biochemical, CFP-Ran/YFP-importin-beta FRET, RCC1, cell-free (AID 434961). CFP-Ran/YFP-importin-beta FRET, cell-free; active compounds read high. inhibition, %. 0.2% of 7,700 active;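 active = more than half of the replicate wells above 15% inhibition; inconclusive = exactly half above it; inactive = fewer than half above it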;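 also: 0% = DMSO wells and 100% inhibition = RanGDP control wells on each plate; stock of unstated strength diluted about 400-fold; mean of two wells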
Active calls of the source: *; ? = inconclusive. Not all compounds are listed. The share of hits here may be higher or lower than overall.

The opening five compounds, ahead of the listing:
item	Ran FRET	mol
1	0.2	C[C@H]1CN([C@@H](C)CO)C(=O)Cc2cc(NS(=O)(=O)c3ccccc3)ccc2O[C@H]1CN(C)Cc1ccc2c(c1)OCO2
2	-3.6	C[C@@H]1CCCCO[C@H](CN(C)C)[C@H](C)CN([C@H](C)CO)C(=O)c2cc(NS(=O)(=O)c3cn(C)cn3)ccc2O1
3	-6.8	Cc1noc(C)c1S(=O)(=O)Nc1cccc2c1O[C@H](CN(C)C(=O)NC1CCCCC1)[C@H](C)CN([C@H](C)CO)C2=O
4	1.7	C[C@H]1CN([C@@H](C)CO)C(=O)c2cccc(NC(=O)Nc3ccc(C(F)(F)F)cc3)c2O[C@@H]1CN(C)C(=O)NC1CCCCC1
5	2.3	COc1ccc(CN(C)C[C@H]2Oc3ccc(NC(=O)Nc4c(C)noc4C)cc3CC(=O)N([C@@H](C)CO)C[C@H]2C)cc1

This part in full (from the top)
item	Ran FRET	mol
1	0.2	C[C@H]1CN([C@@H](C)CO)C(=O)Cc2cc(NS(=O)(=O)c3ccccc3)ccc2O[C@H]1CN(C)Cc1ccc2c(c1)OCO2
2	-3.6	C[C@@H]1CCCCO[C@H](CN(C)C)[C@H](C)CN([C@H](C)CO)C(=O)c2cc(NS(=O)(=O)c3cn(C)cn3)ccc2O1
3	-6.8	Cc1noc(C)c1S(=O)(=O)Nc1cccc2c1O[C@H](CN(C)C(=O)NC1CCCCC1)[C@H](C)CN([C@H](C)CO)C2=O
4	1.7	C[C@H]1CN([C@@H](C)CO)C(=O)c2cccc(NC(=O)Nc3ccc(C(F)(F)F)cc3)c2O[C@@H]1CN(C)C(=O)NC1CCCCC1
5	2.3	COc1ccc(CN(C)C[C@H]2Oc3ccc(NC(=O)Nc4c(C)noc4C)cc3CC(=O)N([C@@H](C)CO)C[C@H]2C)cc1
6	1.4	Cc1noc(C)c1NC(=O)Nc1cccc2c1O[C@@H](CN(C)C(=O)NC1CCCCC1)[C@@H](C)CN([C@H](C)CO)C2=O
7	-4.3	C[C@H](CO)N1C[C@H](C)[C@H](CN(C)C(=O)c2cc(-c3ccccc3)on2)OCc2cn(nn2)CCCC1=O
8	?	C[C@H]1CN([C@@H](C)CO)C(=O)Cc2cc(NC(=O)NC3CCCCC3)ccc2O[C@H]1CN(C)S(=O)(=O)c1ccccc1
9	-5.1	COc1ccc(CN(C)C[C@H]2OCCCC[C@H](C)Oc3ccc(NC(=O)Nc4c(C)noc4C)cc3C(=O)N([C@@H](C)CO)C[C@H]2C)cc1
10	-2.9	C[C@H]1CN([C@@H](C)CO)C(=O)c2cc(NC(=O)Nc3cccc4ccccc34)ccc2O[C@H]1CN(C)C(=O)Nc1ccc2c(c1)OCO2
11	4.7	COc1ccc(CN(C)C[C@@H]2Oc3ccc(NC(=O)Nc4ccc(C(F)(F)F)cc4)cc3C(=O)N([C@@H](C)CO)C[C@@H]2C)cc1
12	1.1	C[C@@H]1CN([C@@H](C)CO)C(=O)Cc2cc(NC(=O)Cn3cnnn3)ccc2O[C@H]1CN(C)S(=O)(=O)c1ccccc1

Later entries.
item	Ran FRET	mol
13	-4.8	C[C@H](CO)N1C[C@H](C)[C@H](CN(C)Cc2ccc(C(F)(F)F)cc2)Oc2c(NS(=O)(=O)c3cccs3)cccc2C1=O
14	5.4	CC(C)NC(=O)Nc1cccc2c1O[C@@H](CN(C)Cc1ccc(Cl)c(Cl)c1)[C@H](C)CN([C@H](C)CO)C2=O
15	7.1	C[C@H](CO)N1C[C@H](C)[C@H](CN(C)C(=O)Nc2ccc(C(F)(F)F)cc2)Oc2c(NS(=O)(=O)c3ccccc3)cccc2C1=O
16	-2.0	CNC[C@H]1Oc2c(NC(=O)c3cc(C)nn3C)cccc2C(=O)N([C@H](C)CO)C[C@H]1C
17	7.1	CNC[C@H]1Oc2c(NC(=O)c3ccc(-c4nccs4)cc3)cccc2C(=O)N([C@H](C)CO)C[C@H]1C
18	2.5	Cc1noc(C)c1NC(=O)N(C)C[C@H]1Oc2ccc(NC(=O)Cc3cn(C)c4ccccc34)cc2CC(=O)N([C@@H](C)CO)C[C@H]1C
19	4.2	Cc1noc(C)c1S(=O)(=O)Nc1ccc2c(c1)CC(=O)N([C@@H](C)CO)C[C@@H](C)[C@H](CN(C)Cc1ccc(-c3ccccc3)cc1)O2
20	0.4	C[C@@H]1CN([C@H](C)CO)C(=O)Cc2cc(NC(=O)NC3CCCCC3)ccc2O[C@H]1CN(C)Cc1ccc2c(c1)OCO2
21	0.5	C[C@@H]1CN([C@H](C)CO)C(=O)Cc2cc(NS(=O)(=O)c3cccs3)ccc2O[C@@H]1CN(C)C(=O)Nc1ccc(F)cc1
22	1.0	C[C@@H]1CCCCO[C@H](CN(C)C(=O)CCCN(C)C)[C@H](C)CN([C@@H](C)CO)C(=O)c2cc(NC(=O)c3ccncc3)ccc2O1
23	-2.7	C[C@H]1CN([C@@H](C)CO)C(=O)Cc2cc(NC(=O)NC3CCCCC3)ccc2O[C@H]1CN(C)C
24	-2.5	C[C@@H]1CN([C@H](C)CO)C(=O)CCCn2cc(nn2)CO[C@H]1CN(C)Cc1ccc2cccnc2c1

Quoted from above: nos. 12 to 14
item	Ran FRET	mol
12	1.1	C[C@@H]1CN([C@@H](C)CO)C(=O)Cc2cc(NC(=O)Cn3cnnn3)ccc2O[C@H]1CN(C)S(=O)(=O)c1ccccc1
13	-4.8	C[C@H](CO)N1C[C@H](C)[C@H](CN(C)Cc2ccc(C(F)(F)F)cc2)Oc2c(NS(=O)(=O)c3cccs3)cccc2C1=O
14	5.4	CC(C)NC(=O)Nc1cccc2c1O[C@@H](CN(C)Cc1ccc(Cl)c(Cl)c1)[C@H](C)CN([C@H](C)CO)C2=O

The list continues:
item	Ran FRET	mol
25	-6.8	C[C@@H]1CCCCO[C@H](CN(C)C)[C@@H](C)CN([C@H](C)CO)C(=O)c2cc(NS(=O)(=O)c3cn(C)cn3)ccc2O1
26	-5.1	C[C@H]1CCCCO[C@@H](CN(C)Cc2ccncc2)[C@@H](C)CN([C@@H](C)CO)C(=O)c2cc(NS(=O)(=O)c3ccccc3)ccc2O1
27	-2.5	C[C@@H]1CCCCO[C@H](CN(C)Cc2ccncc2)[C@@H](C)CN([C@H](C)CO)C(=O)c2cc(NC(=O)Nc3ccccc3)ccc2O1
28	1.3	C[C@@H]1CN([C@@H](C)CO)C(=O)c2cc(NC(=O)C3CC3)ccc2O[C@H]1CN(C)S(=O)(=O)c1cn(C)cn1
29	-3.3	C[C@@H]1CN([C@H](C)CO)C(=O)Cc2cc(NS(=O)(=O)c3cccs3)ccc2O[C@H]1CN(C)CC1CC1
30	-1.5	C[C@@H]1CN([C@H](C)CO)C(=O)c2cccc(NS(C)(=O)=O)c2O[C@@H]1CN(C)C(=O)NC1CCCCC1
31	5.1	C[C@H]1CN([C@@H](C)CO)C(=O)Cc2cc(NC(=O)Nc3ccccc3)ccc2O[C@@H]1CN(C)Cc1ccc(C(=O)O)cc1
32	-2.7	CC(C)NC(=O)Nc1ccc2c(c1)C(=O)N([C@H](C)CO)C[C@H](C)[C@H](CN(C)S(=O)(=O)c1cccs1)OCCCC[C@H](C)O2
33	-0.5	Cc1noc(C)c1NC(=O)N(C)C[C@@H]1Oc2ccc(NC(=O)C3CC3)cc2C(=O)N([C@@H](C)CO)C[C@@H]1C
34	-1.8	C[C@H]1CN([C@@H](C)CO)C(=O)c2cccc(NS(=O)(=O)c3ccccc3)c2O[C@H]1CN(C)C(=O)NC1CCCCC1
35	4.8	C[C@H](CO)N1C[C@H](C)[C@H](CN(C)S(=O)(=O)c2cn(C)cn2)OCCCC[C@H](C)Oc2ccc(NC(=O)Cc3ccccc3)cc2C1=O
36	-1.7	C[C@@H]1CCCCO[C@H](CN(C)C(=O)Cc2ccccc2)[C@H](C)CN([C@@H](C)CO)C(=O)c2cc(NC(=O)c3ccncc3)ccc2O1

Following part.
item	Ran FRET	mol
37	-7.6	C[C@@H]1CN([C@@H](C)CO)C(=O)c2cc(NS(C)(=O)=O)ccc2O[C@@H](C)CCCCO[C@H]1CN(C)Cc1ccncc1
38	9.2	CNC[C@H]1Oc2c(NC(=O)C3CCOCC3)cccc2C(=O)N([C@H](C)CO)C[C@H]1C
39	3.5	C[C@H](CO)N1C[C@H](C)[C@@H](CN(C)C(=O)Nc2ccc(C(F)(F)F)cc2)Oc2ccc(NC(=O)C3CC3)cc2C1=O
40	-1.2	C[C@@H]1CN([C@@H](C)CO)C(=O)c2cccc(NS(C)(=O)=O)c2O[C@@H]1CN(C)Cc1ccc(Oc2ccccc2)cc1
41	1.4	C[C@@H]1CN([C@@H](C)CO)C(=O)c2cc(NC(=O)NC3CCCCC3)ccc2O[C@@H]1CN(C)C
42	-7.8	C[C@@H]1CCCCO[C@@H](CN(C)C)[C@H](C)CN([C@H](C)CO)C(=O)c2cc(NC(=O)Nc3ccccc3)ccc2O1
43	0.9	C[C@H](CO)N1C[C@H](C)[C@H](CN(C)Cc2ccncc2)Oc2ccc(NC(=O)Cc3ccccc3)cc2CC1=O
44	4.6	C[C@H](CO)N1C[C@H](C)[C@H](CN(C)S(=O)(=O)c2ccccc2)OCc2cn(nn2)CCCC1=O
45	-3.4	COc1ccc(CN(C)C[C@@H]2Oc3c(NC(=O)Nc4cccc5ccccc45)cccc3C(=O)N([C@H](C)CO)C[C@@H]2C)cc1
46	3.8	C[C@@H]1CN([C@@H](C)CO)C(=O)Cc2cc(NC(=O)CCN3CCOCC3)ccc2O[C@H]1CN(C)C
47	3.0	Cc1noc(C)c1S(=O)(=O)Nc1ccc2c(c1)CC(=O)N([C@@H](C)CO)C[C@H](C)[C@H](CN(C)C(=O)NC(C)C)O2
48	0.8	C[C@@H]1CCCCO[C@H](CN(C)Cc2ccccc2)[C@H](C)CN([C@@H](C)CO)C(=O)c2cc(N(C)C)ccc2O1

(more compounds)
item	Ran FRET	mol
49	-0.5	C[C@H]1CN([C@@H](C)CO)C(=O)c2cccc(NS(C)(=O)=O)c2O[C@H]1CN(C)C(=O)NC1CCCCC1
50	-3.2	C[C@@H]1CN([C@@H](C)CO)C(=O)c2cc(NC(=O)CCC(F)(F)F)ccc2O[C@@H](C)CCCCO[C@H]1CN(C)C(=O)c1ccncc1
51	-4.5	Cc1noc(C)c1S(=O)(=O)N(C)C[C@@H]1OCCCC[C@@H](C)Oc2ccc(NC(=O)CCCN(C)C)cc2C(=O)N([C@H](C)CO)C[C@H]1C
52	-0.7	CNC[C@@H]1OCCCC[C@H](C)Oc2ccc(NS(=O)(=O)c3cccs3)cc2C(=O)N([C@@H](C)CO)C[C@@H]1C
53	?	C[C@@H]1CCCCO[C@@H](CN(C)Cc2ccc(C(F)(F)F)cc2)[C@@H](C)CN([C@@H](C)CO)C(=O)c2cc(NS(C)(=O)=O)ccc2O1
54	1.4	COc1ccc(S(=O)(=O)N(C)C[C@@H]2Oc3c(NC(=O)Nc4c(C)noc4C)cccc3C(=O)N([C@H](C)CO)C[C@H]2C)cc1
55	5.2	C[C@@H]1CN([C@@H](C)CO)C(=O)Cc2cc(N(C)C)ccc2O[C@H]1CN(C)Cc1ccncc1
56	1.8	C[C@@H]1CCCCO[C@H](CN(C)Cc2ccncc2)[C@H](C)CN([C@@H](C)CO)C(=O)c2cc(NC(=O)Nc3ccccc3)ccc2O1
57	-6.0	COc1ccc(NC(=O)N(C)C[C@H]2Oc3ccc(NS(=O)(=O)c4ccccc4)cc3C(=O)N([C@H](C)CO)C[C@@H]2C)cc1
58	0.7	C[C@H](CO)N1C[C@H](C)[C@H](CN(C)C)Oc2c(NS(C)(=O)=O)cccc2C1=O
59	3.4	Cc1noc(C)c1S(=O)(=O)N(C)C[C@H]1OCc2cnnn2CCCC(=O)N([C@H](C)CO)C[C@@H]1C
60	-2.3	C[C@@H]1CN([C@H](C)CO)C(=O)c2cc(NS(=O)(=O)c3ccccc3)ccc2O[C@@H](C)CCCCO[C@@H]1CN(C)Cc1ccc2c(c1)OCO2

Going on with the list:
item	Ran FRET	mol
61	0.7	C[C@@H]1CCCCO[C@H](CN(C)C(=O)Cc2ccccc2)[C@H](C)CN([C@H](C)CO)C(=O)c2cc(NC(=O)c3ccncc3)ccc2O1
62	-3.0	C[C@H](CO)N1C[C@H](C)[C@H](CN(C)S(=O)(=O)c2cccs2)Oc2ccc(NC(=O)Cc3cn(C)c4ccccc34)cc2CC1=O
63	-2.5	C[C@H](CO)N1C[C@H](C)[C@@H](CN(C)C(=O)Nc2ccc(C(F)(F)F)cc2)Oc2c(NS(=O)(=O)c3cn(C)cn3)cccc2C1=O
64	-5.3	CC(C)NC(=O)N(C)C[C@@H]1OCCCC[C@@H](C)Oc2ccc(NC(=O)CCCN(C)C)cc2C(=O)N([C@H](C)CO)C[C@@H]1C
65	-4.2	C[C@@H]1CCCCO[C@@H](CN(C)Cc2ccc(C(=O)O)cc2)[C@@H](C)CN([C@@H](C)CO)C(=O)c2cc(NC(=O)Nc3ccc(F)cc3)ccc2O1
66	6.6	Cc1noc(C)c1S(=O)(=O)N(C)C[C@@H]1Oc2ccc(NS(=O)(=O)c3cn(C)cn3)cc2CC(=O)N([C@@H](C)CO)C[C@H]1C
67	1.0	Cc1noc(C)c1NC(=O)Nc1ccc2c(c1)C(=O)N([C@@H](C)CO)C[C@H](C)[C@H](CN(C)Cc1ccncc1)OCCCC[C@H](C)O2
68	-0.7	COc1ccccc1S(=O)(=O)N(C)C[C@H]1OCc2cn(nn2)CCCC(=O)N([C@H](C)CO)C[C@@H]1C
69	3.3	C[C@H](CO)N1C[C@H](C)[C@H](CN(C)Cc2ccc(C(=O)O)cc2)Oc2c(NC(=O)Nc3ccc(F)cc3)cccc2C1=O
70	-1.2	COc1ccc(CN(C)C[C@@H]2Oc3c(NC(=O)Nc4ccc(OC)cc4)cccc3C(=O)N([C@H](C)CO)C[C@H]2C)cc1
71	2.3	C[C@H]1CCCCO[C@H](CN(C)C(=O)Nc2ccccc2)[C@@H](C)CN([C@@H](C)CO)C(=O)c2cc(NC(=O)Cc3ccccc3)ccc2O1
72	3.3	COC(=O)N(C)C[C@@H]1OCc2cnnn2CCCC(=O)N([C@H](C)CO)C[C@@H]1C
73	-2.1	C[C@@H]1CN([C@@H](C)CO)C(=O)c2cc(NC(=O)Cc3ccccc3)ccc2O[C@@H](C)CCCCO[C@H]1CN(C)C(=O)Nc1ccccc1
74	-0.2	CNC[C@H]1Oc2ccc(NS(=O)(=O)c3cccs3)cc2CC(=O)N([C@H](C)CO)C[C@H]1C
